YB-1 expr inh – inhibitors of YB-1 gene expression, primary screen, cell-based, fluorescence; actives 0.37% (n = 30,000); delta delta Cp (YB-1 minus CDIP) (test concentration not listed); AID 434959, 2010; U2OS, qRT-PCR YB-1 vs CDIP delta delta Cp, 16 h; stronger effect = higher value; zero = DMSO, each unit about twofold;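 active = delta delta Cp rounded down to an integer at or above 3, about 3 SD of DMSO wells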;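 also: higher means less YB-1 transcript or more CDIP transcript relative to DMSO; stock transfer was 100 nL into about 100 µL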
Hedgehog inh – Hedgehog pathway signaling inhibitors, primary screen, luminescence, Shh-LIGHT2 cells, Gli-luciferase; actives 2.1% (n = 22,000); Shh-LIGHT2 Gli-luciferase reporter, 30 h; inhibition, % (test concentration not listed);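 active = replicate mean of 65% or more; inconclusive = mean lower but half the replicates past it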;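 also: pathway switched on by Shh-conditioned medium diluted 1 in 25 in low serum; 100 nL library stock added to about 40 µL; 0% = median of neutral wells and 100% = positive control level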
PD-1 reverse act – activators reversing PD-1 mediated T-cell inhibition, primary screen, luminescence, primary human CD4 T cells, PD-L1 beads. CellTiter-Glo 96 h. activation, % (no concentration beside the values). 29,000 tested, under 10 active. AID 2316, 2010;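 active = replicate mean of 50% or more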;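 also: 0% = median vehicle wells and 100% = positive control; 100 nL library stock added to about 50 µL; numbers are from one replicate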
MITF inh – inhibitors of MITF, primary screen, MITF inhibitor project, cell-based, luminescence; TRPM1 promoter luciferase, 24 h; inhibition, % (test concentration not listed); AID 2240, 2010; actives 0.28% (n = 37,000);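 active = most replicates at 85% or more, or half of them and the mean; inconclusive = half reach 85% but not the mean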;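 also: human melanocyte line stably carrying TRPM1 promoter luciferase reporter; 0% = vehicle wells and 100% = a positive control; the first replicate is given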
Starred values were filed as active, the others as inactive; ? = inconclusive; . = not tested or not shown; & = joins results of further samples. A portion of the library. The share of hits here may be higher or lower than overall.

[1] CCOc1ccc(NC(=O)Cn2cc(C(=O)c3ccco3)c3ccccc32)cc1
[2] O=[N+]([O-])c1ccc(O)c(C(c2c[nH]c3ccccc23)c2c[nH]c3ccccc23)c1
[3] CC(=O)c1ccc(S(=O)(=O)NC(=O)NC2CCCCC2)cc1
[4] CN(C(=O)CCCOc1ccc2[nH]c(=O)ccc2c1)C1CCCCC1
[5] COc1cc(O)c2c(=O)cc(-c3ccc(OC)c(-c4c(O)cc(O)c5c(=O)cc(-c6ccc(O)cc6)oc45)c3)oc2c1
[6] CN1CCN(C(c2ccccc2)c2ccccc2)CC1

assay / entry,1,2,3,4,5,6
MITF inh,-7,47,3,2,?,15&-2
PD-1 reverse act,-0.3,0.6,4.1,7.8,.,3.2
YB-1 expr inh,.,.,0.32,0.75,-0.3,-0.31&0.25
Hedgehog inh,.,.,-18,10,18,38&-3

[7] Cc1cc(-c2ccccc2)nnc1NCCN1CCOCC1
[8] CC(=O)O[C@]1(C(C)=O)CCC2C3C=C(Cl)C4=CC(=O)[C@@H]5C[C@@H]5[C@]4(C)C3CC[C@@]21C (stereo not given in full)
[9] C[C@]12CCC(=O)C=C1CC[C@@H]1C2CC[C@@]2(C)C1CC[C@@H]2C(=O)CO (stereo not given in full)
[10] O=C(CCNNC(=O)c1ccncc1)NCc1ccccc1
[11] CCCNC(C)C(=O)Nc1c(C)csc1C(=O)OC (stereo not given)
[12] Cc1c(NC(=O)c2cccnc2)c(=O)n(-c2ccccc2)n1C

assay / entry,7,8,9,10,11,12
MITF inh,-5,-24,5,8,-17,4
PD-1 reverse act,2.4,.,0.5,.,.,.
YB-1 expr inh,0.45,-0.32,2.5,0.3,0.42,-0.016
Hedgehog inh,-70,-18,?,-3,-79,-43

[13] OCCN1CCN(CCCN2c3ccccc3Sc3ccc(Cl)cc32)CC1
[14] CC(C(=O)O)c1ccc(C(=O)c2cccs2)cc1 (stereo not given)
[15] CCN(CC)CCNC(=O)c1cc(Cl)c(N)cc1OC
[16] CCOC(=O)c1ccc(N)cc1
[17] COc1cc2ncnc(Nc3cccc(O)c3)c2cc1OC
[18] CN(C)CCOC(C)(c1ccccc1)c1ccccn1 (stereo not given)

assay / entry,13,14,15,16,17,18
MITF inh,19,3,-30&7,-24,-2,-12
PD-1 reverse act,.,8.3,.,.,-1.2,.
YB-1 expr inh,-0.4,6.9*,-0.061&-0.38,-0.33,-0.44,0.3
Hedgehog inh,19,-15,-58&-18,-56,21,24

[19] CN1CCOC(c2ccccc2)c2ccccc2C1 (stereo not given)
[20] c1ccc(CN(CC2=NCCN2)c2ccccc2)cc1
[21] CC(COc1ccccc1)NC(C)C(O)c1ccc(O)cc1 (stereo not given)
[22] CC(=O)[C@H]1CCC2C3C[C@H](C)C4=CC(=O)CC[C@]4(C)C3[C@@H](O)C[C@@]21C (stereo not given in full)
[23] O=C(c1ccc(F)cc1)C1CCN(CCn2c(=O)[nH]c3ccccc3c2=O)CC1
[24] C[C@@H]1CC[C@]2(C(=O)O[C@@H]3O[C@H](CO[C@@H]4O[C@H](CO)[C@@H](O[C@@H]5O[C@@H](C)[C@H](O)[C@@H](O)[C@H]5O)[C@H](O)[C@H]4O)[C@@H](O)[C@H](O)[C@H]3O)CC[C@]3(C)C(=CCC4[C@@]5(C)C[C@@H](O)[C@H](O)[C@@](C)(CO)C5CC[C@]43C)C2[C@H]1C (stereo not given in full)

assay / entry,19,20,21,22,23,24
MITF inh,6,2,-1,5,-1&-6,.
PD-1 reverse act,.,.,.,.,3.0,.
YB-1 expr inh,0.12,-0.55,-0.99,0.12,0.91&-0.13,1
Hedgehog inh,-8,-43,14,48,17&8,-29

[25] Oc1ccc(/C=C/c2cc(O)cc(O)c2)cc1
[26] CC1(C)O[C@H]2CC(=O)OC[C@]23[C@H]2CC[C@@]4(C)[C@H](c5ccoc5)OC(=O)[C@H]5O[C@]54[C@]2(C)C(=O)C[C@@H]13
[27] CCCn1cnc2c1c(=O)n(CCCCC(C)=O)c(=O)n2C
[28] Cc1nc2ccccn2c(=O)c1CCN1CCC(C(=O)c2ccc(F)cc2)CC1
[29] c1ccc(CC2=NCCN2)cc1
[30] C[C@@H](N)C1CCC(C(=O)Nc2ccncc2)CC1 (stereo not given in full)

assay / entry,25,26,27,28,29,30
MITF inh,101*,15,-9,9,3,-16&2
PD-1 reverse act,.,.,.,0.1,1.8,-0.4&2.0
YB-1 expr inh,0.13,-0.0033,-0.073,0.85,0.49,-0.22&-0.44
Hedgehog inh,?,-12,-36,-29,58,?

Screening data as filed in PubChem.
